Screening data deposited in PubChem BioAssay by National Center for Advancing Translational Sciences (NCATS).
Six1-Eya2 inh – qHTS Assay for Inhibitors of the Six1/Eya2 Interaction; Homeobox protein SIX1 (Homo sapiens) + Protein phosphatase EYA2 (Homo sapiens), …; AlphaScreen GST-Six1/His-Eya2 binding, biochemical; active compounds read low; control for the full effect not named in the record; activity change, % (test concentration not listed); 360,000 compounds, 0.56% hits; AID 651725, 2012; in the data active = activity change below about -65%; inconclusive = about -30% to -65%; inactive = above about -30%; also: % is scaled to controls: 0 for no effect and ±100 for the full control effect
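Six1/Eya2 binding was read as AlphaScreen signal after compounds were pinned into GST-Six1 plus His-tagged Eya2 (5X stock 250/500 nM) in pH 8.0 Tris/NaCl/TCEP buffer, beads added, then incubated 1 h, 37 C, dark.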
TRPML1 inh – qHTS for Inhibitors of the Human Mucolipin Transient Receptor Potential 1 (TRPML1); 390,000 compounds, 0.02% hits; Mucolipin-1 (Homo sapiens), Q9GZU1; activity change, negative = inhibition, % (concentration not given with the values); AID 624415, 2012; TRPML1-inducible cells, Ca2+ dye fluorescence, FDSS; active compounds read low; inhibition of EC80 agonist-evoked calcium signal; in the data active means activity change below about -50%; inconclusive means about -30% to -50%; inactive means above about -30%;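 also: stimulus is agonist 54-4 at its EC80 concentration; % is scaled to controls: 0 for no effect and ±100 for the full control effect; the text of the record puts the active cut at -80%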
Target sequence (Q9GZU1 whole entry, looked up): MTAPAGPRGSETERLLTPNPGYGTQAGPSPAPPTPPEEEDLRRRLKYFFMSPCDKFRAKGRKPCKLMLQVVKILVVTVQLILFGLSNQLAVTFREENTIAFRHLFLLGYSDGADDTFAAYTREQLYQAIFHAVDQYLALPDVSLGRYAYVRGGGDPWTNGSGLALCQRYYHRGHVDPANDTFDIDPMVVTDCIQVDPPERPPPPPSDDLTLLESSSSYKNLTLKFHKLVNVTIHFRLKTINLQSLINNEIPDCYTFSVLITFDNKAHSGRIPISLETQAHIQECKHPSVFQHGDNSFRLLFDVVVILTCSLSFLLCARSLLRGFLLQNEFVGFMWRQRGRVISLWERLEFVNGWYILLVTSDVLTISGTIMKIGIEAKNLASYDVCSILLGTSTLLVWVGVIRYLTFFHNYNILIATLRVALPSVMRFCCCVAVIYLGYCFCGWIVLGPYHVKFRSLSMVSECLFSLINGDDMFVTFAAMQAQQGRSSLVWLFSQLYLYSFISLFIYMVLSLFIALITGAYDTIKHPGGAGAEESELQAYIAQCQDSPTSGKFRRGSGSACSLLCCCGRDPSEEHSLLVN
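Tet-induced TRPML1-DL cells loaded with Ca8 no-wash calcium dye were read kinetically on FDSS. Compound addition was followed by EC80 agonist 54-4 (4 uM final); inhibition was read over 110 s.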
PINK1 expr mod – A Quantitative High throughput Screen to Identify Chemical Modulators of PINK1 Expression. PINK1 immunofluorescence, high-content cytometry, 24 h. Potency, µM (titrated, usually from 76.6 µM), for inactives: at the highest dose activation (PINK1 increase), usual class: activators. 410,000 compounds, 0.2% hits. AID 624263, 2012; active = well fitted activation curve with a large enough effect; inconclusive = small, poorly fitted or top-dose-only effect; inactive = flat fitted curve, though single readings scatter; cell line not stated here;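 also: potency is read from the fitted curve at half-maximal effect; % of control where 0% means no effect; nearly all actives have a fitted effect of over 65% in size; a mitochondrial uncoupler was the plate control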
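Cells are seeded, rested 12 hours, then given compound at five concentrations or DMSO for 24 hours. After fixation, blocking and antibody staining, PINK1 amount and mitochondrial localization are scored; CCCP serves as control.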
CtBP-E1A inh – qHTS Assay for Inhibitors of the CtBP/E1A Interaction; activity change, % (no concentration beside the values); AlphaScreen GST-E1A/His-CtBP binding, 1536-well; active compounds read low; control for the full effect not named in the record; 340,000 compounds, 0.49% hits; AID 651724, 2012; in the data active means activity change below about -65%; inconclusive means about -30% to -65%; inactive means above about -30%; also: % is scaled to controls: 0 for no effect and ±100 for the full control effect
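AlphaScreen with 125 nM GST-E1A and 125 nM His-CtBP (5X stocks) in Tris pH 8.0, 300 mM NaCl, BSA, Tween 20, TCEP. Compounds preincubated 2 h at 37 deg C, then glutathione donor/nickel acceptor beads added for 1 h at 37 deg C in dark.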
D2 agonist – Beta-Arrestin HTS for Positive Allosteric Modulators of the Human D2 Dopamine Receptor: Agonists. DiscoveRx PathHunter D2 beta-arrestin, luminescence, 90 min; 100% = 57 uM dopamine signal. activation, % (test concentration not listed). 360,000 compounds, 0.084% hits; in the data active = activation above about 40%; inconclusive = about 15% to 40%; inactive = below about 15%; also: compound concentration not given in the record; the text of the record calls up to 30% inactive
Target sequence (P14416 whole entry, looked up): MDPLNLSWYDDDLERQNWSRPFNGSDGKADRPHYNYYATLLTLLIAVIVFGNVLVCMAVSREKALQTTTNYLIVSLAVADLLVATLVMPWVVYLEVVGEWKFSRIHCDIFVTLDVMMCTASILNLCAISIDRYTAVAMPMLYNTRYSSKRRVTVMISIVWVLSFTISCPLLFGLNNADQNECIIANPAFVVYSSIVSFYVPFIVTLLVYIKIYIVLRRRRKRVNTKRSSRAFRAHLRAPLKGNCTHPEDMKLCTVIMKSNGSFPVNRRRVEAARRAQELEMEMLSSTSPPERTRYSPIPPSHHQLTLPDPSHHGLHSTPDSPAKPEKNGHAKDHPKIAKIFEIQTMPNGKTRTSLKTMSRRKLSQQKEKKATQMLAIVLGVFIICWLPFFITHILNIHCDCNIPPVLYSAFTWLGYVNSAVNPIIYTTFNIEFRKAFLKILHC
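Agonist mode: compounds alone added to overnight-plated D2 PathHunter cells for 90 min at 37 C, with 57 uM final dopamine (EC100) defining full response. Beta-arrestin recruitment detected by chemiluminescent reagent, read after 1 h at ambient temperature.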
TRPML1 ag – qHTS for Agonists of the Human Mucolipin Transient Receptor Potential 1 (TRPML1). TRPML1-expressing cells, Ca2+ dye fluorescence, FDSS; host cell line not named in the record; reference of the full effect not given here. AID 624414, 2012. Mucolipin-1 (Homo sapiens), Q9GZU1. activation, % (no concentration beside the values). 410,000 compounds, 0.12% hits; in the data active = activation above about 50%; inconclusive = about 30% to 50%; inactive = below about 30%; also: 0% is about no effect; the text of the record puts the active cut at 80%
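In this qHTS format, compounds were pin-transferred onto Ca8-dye-loaded TRPML1-DL cells induced with Tet overnight, and intracellular Ca2+ fluorescence was recorded kinetically for 110 s after a 10 s baseline. A subsequent 4uM final 54-4 (EC80) addition followed by a second 110 s read served as the antagonist phase.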
Starred values were filed as active, the others as inactive; u = inconclusive; x = not tested or not shown; [ ] = dose if it differs, or a comment.

SMILES	Six1-Eya2 inh	TRPML1 inh	PINK1 expr mod	CtBP-E1A inh	D2 agonist	TRPML1 ag
Cc1cccc(-c2noc(-c3ccc(N4CCN(C)CC4)c([N+](=O)[O-])c3)n2)c1	x	-24	1.2%	x	x	-0.7
CC(C)=CC(=O)Nc1ccc(S(=O)(=O)Nc2ccccn2)cc1	3	6	0.8%	x	-2.1	1.5
CN1C(=O)C(c2ccccc2[N+](=O)[O-])C(=O)c2ccccc21 (centres undefined)	6	-16	2.7%	4	-8.2	0.1
COc1ccc(NC(=O)N(C)C[C@H]2Oc3c(NC(=O)c4nc5ccccc5s4)cccc3C(=O)N([C@@H](C)CO)C[C@H]2C)cc1	-9	-1	2.1%	1	-1.0	-0.6
CCOC(=O)Cc1csc(NC(=S)NC(=O)c2ccc(Cl)cc2)n1	-9	18	5.7%	-1	-18	3.0
O=C(COc1ccc([N+](=O)[O-])cc1)Nc1cccc2cccnc12	x	12	2.1%	x	x	4.1
CCCCc1ccc(NC(=O)Nc2c(C)n(C)n(-c3ccccc3)c2=O)cc1	4	8	1.1%	4	5.4	0.4
O=C(Nc1ccccc1N1CCOCC1)c1ccc(OCc2cscn2)cc1	-3	3	-2.0%	2	10.0	-0.5
c1ccc(SCCOCCn2cncn2)cc1	-3	2	-0.9%	-1	-1.8	0.4
CSCC[C@H](NC(=O)OC(C)(C)C)c1nnc(SCC(=O)Nc2ccc(C)cc2C)o1	6	0	-2.5%	8	-1.6	0.6
CCC(Sc1nncn1C)C(=O)Nc1ccccc1OC (centres undefined)	4	1	u	2	0.7	0.7
COc1ccc(C(=O)Nc2ccc3[nH]ccc3c2)cc1	-8	3	11%	0	-2.2	0.0
Cc1cccc(NC(=S)NC(C)C(c2cccs2)N2CCN(C)CC2)c1C (centres undefined)	-2	3	-0.6%	-1	1.4	0.2
O=C(Cn1cc(/C=C\[N+](=O)[O-])c2ccccc21)Nc1ccccc1	1	1	-0.9%	3	-6.7	3.1
CCOC(=O)c1c(NC(=O)CN2CCOCC2)sc2c1CCCC2=O	-3	-3	1.5%	0	-1.5	2.1
Cc1nc(C(F)(F)F)ccc1C(=O)N1CCCCC1	3	-5	1.9%	4	-4.2	0.9
O=C1CS(=O)(=O)C2(C(=O)N(Cc3ccccc3)c3ccccc32)N1c1ccc(F)c(Cl)c1 (centres undefined)	x	-6	-5.7%	x	x	1.1
COc1ccc(-c2nnn(CCc3nn[nH]n3)n2)cc1OC	-1	5	0.9%[38.3 µM]	-5	1.4	-0.7
Cc1ccc(S(=O)(=O)N2C[C@H]3C(=O)C[C@@H](c4ccccc4)N(S(C)(=O)=O)[C@H]3C[C@H]2c2ccccc2)cc1	-10	-5	0.7%	0	-4.0	0.1
CN1C(=C2C(=O)OC(C)(C)OC2=O)Sc2ccccc21	5	1	-2.9%[38.3 µM]	13	-0.9	-0.4
Cc1nc2c(OCc3ccc(F)cc3)cccn2c1N(C)C(=O)CCC1CCCC1	-1	-18	9.1%	-8	4.0	0.6
C=CCOc1ccc(/C(O)=C2/C(=O)C(=O)N(CCCN3CCOCC3)C2c2ccccc2)cc1 (centres undefined)	9	30	0.8%	-4	-0.5	-0.9
Cc1cc(=O)oc2cc(OCC(=O)Nc3c(C(C)C)cccc3C(C)C)ccc12	x	17	1.0%	x	x	0.3
O=C(CNC(=O)c1ccc(Cl)cc1)c1ccccc1	8	-2	1.0%	-9	-6.2	2.6
CCC/C(=N\NC(=O)CNC(=O)c1ccc(Cl)cc1)c1ccccc1	-4	-6	-0.2%	0	-4.0	0.6

Later entries:
SMILES	Six1-Eya2 inh	TRPML1 inh	PINK1 expr mod	CtBP-E1A inh	D2 agonist	TRPML1 ag
O=C(N/N=C/c1ccncc1)c1cccc(N/N=C/c2ccncc2)c1	-18	-4	-1.3%	-9	8.3	0.1
O=C(O)c1ccc(N2C(=O)CC(N3CCN(c4cccc(C(F)(F)F)c4)CC3)C2=O)cc1 (centres undefined)	15	9	2.3%	0	-2.8	0.6
Cc1ccc(-c2cc(C(=O)N3CCN(c4ncccn4)CC3)c3cc(Br)ccc3n2)o1	-16	-2	-1.7%	-19	9.9	0.5
Cc1cccc(C(C)C)c1NC(=O)CSc1cccc[n+]1[O-]	-4	16	1.1%	1	-2.3	0.2
Cc1ccc(NC(=O)/C=N/OCC(=O)NCc2ccccc2Cl)cc1	1	x	4.7%	11	-5.6	x
CC1CCc2nn(CC(=O)Nc3c(F)cc(F)cc3Br)cc2C1 (centres undefined)	1	55	1.9%	-1	-0.7	0.5
CCOc1ccccc1OCCCC(=O)NCCc1ccc(S(N)(=O)=O)cc1	-2	6	0.4%	4	-0.7	0.5
COc1ccc(Nc2ncc(C(=O)Nc3ccc(F)cc3F)c3ccccc23)cc1	x	-12	0.6%	x	x	1.3
C=CCNc1nc2cc(-c3ccccc3OC)sc2c(=O)n1C	-1	-13	2.6%	0	-4.1	-0.2
CC1=C(C(=O)OC(C)(C)C)C(c2ccco2)C(C#N)=C(N)O1 (centres undefined)	0	18	5.2%[38.3 µM]	3	-0.2	1.8
CN(CC(=O)Nc1ccc(F)c(F)c1F)C(=O)C1CCN(C(=O)Nc2ccccc2)CC1	11	14	1.5%	-3	-2.9	0.4
CC(NC(=O)C1CCC1)c1ccc(Cl)cc1 (centres undefined)	7	38	-0.5%	6	-0.6	0.3
CN(Cc1ccccc1)C(C(=O)NC1CCCCC1)c1ccc(Cl)cc1 (centres undefined)	x	2	1.1%	x	x	0.9
CCc1ccc(-c2cn3c(n2)sc2cc(C(=O)NCCCc4ccccc4)ccc23)cc1	x	9	0.4%	x	x	-0.1
CCN(CC)S(=O)(=O)c1cccc2c(N(C)C)cccc12	43	-25	-1.8%	29	4.8	2.3
NC(=O)c1cccc(-c2ccnc3c2CC(C(=O)Nc2ccccc2)O3)c1 (centres undefined)	-2	x	-0.4%	0	-3.4	-0.7
CS(=O)(=O)N1CCCC(C(=O)NCc2cccs2)C1 (centres undefined)	2	10	13%[38.3 µM]	2	-0.9	0.4
COc1ccc(C2(C)NC(=O)N(CC(=O)Nc3ccc(S(=O)(=O)N4CCCC4)cc3)C2=O)cc1 (centres undefined)	-8	-3	1.0%	1	0.4	3.1
O=C(Nc1ccc(Cl)cc1C(F)(F)F)C(Sc1nnc(-c2cccs2)o1)c1ccccc1 (centres undefined)	0	2	u	-8	-2.9	1.0
CC(=O)Nc1cccc(-c2cc(NC(C)=O)c3ncc(-c4cccc(C(C)=O)c4)n3c2)c1	-13	15	1.3%	-10	12	0.7
CN(Cc1ccccc1)C(=O)COC(=O)c1cc(=O)[nH]c2ccccc12	-2	14	5.0%	4	3.2	-0.4
Cc1noc(C)c1COC(=O)COc1ccc(C#N)cc1	5	-6	-0.1%	0	-2.8	0.4
Cc1ccc2nc(N(Cc3cccnc3)C(=O)c3ccc4c(c3)OCCO4)sc2c1	x	14	0.3%	x	x	0.0
CC1CCN(S(=O)(=O)c2cc(C(=O)N3CCN(c4cccc(Cl)c4)CC3)n(C)c2)CC1	x	-7	1.0%	x	x	2.3
CCOc1ccccc1C(=O)OCC(=O)NCc1ccc2c(c1)OCO2	0	-6	0.0%	7	-0.4	2.9

Another view of some results above.
smiles: C=CCNc1nc2cc(-c3ccccc3OC)sc2c(=O)n1C
- Six1-Eya2 inh: -1
- TRPML1 inh: -13
- PINK1 expr mod: 2.6%
- CtBP-E1A inh: 0
- D2 agonist: -4.1
- TRPML1 ag: -0.2

smiles: CC1=C(C(=O)OC(C)(C)C)C(c2ccco2)C(C#N)=C(N)O1 (centres undefined)
- Six1-Eya2 inh: 0
- TRPML1 inh: 18
- PINK1 expr mod: 5.2%[38.3 µM]
- CtBP-E1A inh: 3
- D2 agonist: -0.2
- TRPML1 ag: 1.8

smiles: CN(CC(=O)Nc1ccc(F)c(F)c1F)C(=O)C1CCN(C(=O)Nc2ccccc2)CC1
- Six1-Eya2 inh: 11
- TRPML1 inh: 14
- PINK1 expr mod: 1.5%
- CtBP-E1A inh: -3
- D2 agonist: -2.9
- TRPML1 ag: 0.4

More results follow.
SMILES	Six1-Eya2 inh	TRPML1 inh	PINK1 expr mod	CtBP-E1A inh	D2 agonist	TRPML1 ag
CCc1cccc(C)c1NS(=O)(=O)c1c(C(=O)N2CCC(C)CC2)c(C)n(C)c1C	x	34	-0.5%	x	x	1.7
Cc1ccc2c(N)c(C(=O)c3ccccc3)sc2n1	3	22	6.5%	-6	-2.4	0.6
Cc1cccc(NC(=O)CSc2cccc3cccnc23)c1C	u	42	2.1%	-79*	-2.2	0.6
Cn1nnnc1SCC(=O)N1CCN(c2cccc(Cl)c2)CC1	-8	10	-1.0%	-2	-2.2	0.0
O=C(Nc1cccc(C(=O)O)c1)/C(=C\c1ccco1)NC(=O)c1ccc(Br)o1	-7	6	-2.3%	-5	-2.1	0.9
COc1ccc(S(=O)(=O)NCc2ccco2)cc1-c1nnc2c3ccccc3c(C)nn12	-12	1	26%[38.3 µM]	-3	0.7	-0.1
COc1ccc(N(C(=O)c2snc(C(N)=O)c2N)C(C(=O)NC2CCCC2)c2ccco2)c(OC)c1 (centres undefined)	-6	15	u	1	-5.1	-0.7
CCN(C(=O)CSc1nnc(-c2ccc(C)cc2)n1N)c1c(N)n(Cc2ccccc2)c(=O)[nH]c1=O	-9	6	0.0%	14	6.5	0.8
COc1ccc(-c2[nH]ncc2CN2C[C@@H]3CCC[C@H]2C3)c(F)c1	6	2	-0.6%	4	1.5	-0.6
N#CC(C(=O)c1ccccc1Cl)=C1SCCCS1	-3	25	1.1%	0	-1.3	1.0
O=C(Nc1nnc(CCS(=O)(=O)c2ccc3ccccc3c2)s1)c1ccc([N+](=O)[O-])cc1	-6	2	-0.1%	-1	1.9	-0.2
COc1ccccc1NC(=O)c1cc2c(s1)-c1ccccc1S(=O)(=O)C2	-4	13	2.6%	3	0.7	2.4
CN(Cc1cnccn1)C(=O)CC1C(=O)NCCN1Cc1ccc(F)cc1Cl (centres undefined)	8	-6	-1.7%	-1	-1.6	-0.5
c1ccc(-n2nnnc2-c2cccc3ccccc23)cc1	10	12	4.9%	-2	-1.3	2.8
COc1ccc(N=C2SC(C(=O)O)CC(=O)N2C)cc1 (centres undefined)	-1	1	4.0%	0	-3.0	-1.2
CC(=O)Nc1cc(-c2ccc(CO)cc2)cn2c(-c3ccc(F)cc3)cnc12	-1	x	2.5%	-8	7.5	-0.5
COCCSc1ccccc1C(=O)Nc1ccc2c(c1)OCCO2	0	12	-2.0%	1	-3.5	3.2
CCOC(=O)C1CCN(CC(=O)Nc2cc(C)nn2-c2nc3ccccc3s2)CC1	1	-6	2.8%	x	-2.3	-0.1
CC(Nc1cccc(F)c1)C(=O)Nc1ccc(S(N)(=O)=O)cc1 (centres undefined)	3	7	1.0%	2	6.3	-0.4
